From PubChem BioAssay
RE007 growth inh: qHTS Assay for Inhibitors of the HIV-1 protein Vpr | S. pombe RE007 Vpr strain, BacTiter-Glo ATP luminescence, 24 h; control for the full effect not named in the record | Potency, µM (top dose mostly 92.2 µM), without a hit: at the top dose activity change, negative = less growth | 360,000 tested, 0.21% active; active = well fitted falling curve with a large enough effect; inconclusive = small, poorly fitted or top-dose-only effect; inactive = no such curve, though single readings can be large or run the other way;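 note: % is set by controls: 0 for no effect and ±100 for the full control effect; nearly all actives have a fitted effect of over 50% in size; the assay follows cell death caused by Vpr and the record does not say whether a fall means rescue or toxicity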
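Fission yeast strain RE007, carrying one chromosomally integrated HIV-1 vpr copy, was seeded at OD 0.01 in PMG+AL medium with 23 nL pinned compound. After 24 h at 30 °C and 99% humidity, viability was read by BacTiter-Glo luminescence.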
SARS PLpro yeast: qHTS of Yeast-based Assay for SARS-CoV PLP; S. cerevisiae expressing SARS-CoV PLpro, growth rescue; control for the full effect not named in the record; Potency, µM (series often up to 32.9 µM), inactives show at the highest dose activity, positive = growth rescue; 330,000 tested, 0.19% active; AID 485353, 2010; active means well fitted rising curve with a large enough effect; inconclusive means small, poorly fitted or top-dose-only effect; inactive means no such curve, though single readings can be large or run the other way; note: 0% is about no effect; nearly all actives have a fitted effect of over 55% in size; growth read by luminescence after 48 h
2A StopGo: High Throughput Screening for Foot and Mouth Disease Virus Antivirals; human cells with a luciferase reporter of 2A StopGo recoding; control for the full effect not named in the record; Potency, µM (series often up to 57.9 µM), for the others: top-dose signal change, negative = less light; 410,000 tested, 1.2% active; AID 1159524, 2015; active = well fitted falling curve with a large enough effect; inconclusive = small, poorly fitted or top-dose-only effect; inactive = no such curve, though single readings can be large or run the other way; tested in HEK293T cells; note: % is set by controls: 0 for no effect and ±100 for the full control effect; nearly all actives have a fitted effect of over 45% in size; luciferase light after 4 h
Cruzain noTriton: qHTS Assay for Promiscuous and Specific Inhibitors of Cruzain (without detergent). Potency, µM, for the others: max response, negative = inhibition, usual class: inhibitors. 200,000 tested, 2.3% active. AID 1476, 2009. purified cruzain, Z-FR-AMC fluorescence, no detergent;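 note: plate controls were enzyme without inhibitor for no effect and buffer without enzyme for full effect; nearly all actives have a fitted effect of over 40% in size; top concentration of the series not given in the record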
Target sequence (P25779 123-467 limits assumed): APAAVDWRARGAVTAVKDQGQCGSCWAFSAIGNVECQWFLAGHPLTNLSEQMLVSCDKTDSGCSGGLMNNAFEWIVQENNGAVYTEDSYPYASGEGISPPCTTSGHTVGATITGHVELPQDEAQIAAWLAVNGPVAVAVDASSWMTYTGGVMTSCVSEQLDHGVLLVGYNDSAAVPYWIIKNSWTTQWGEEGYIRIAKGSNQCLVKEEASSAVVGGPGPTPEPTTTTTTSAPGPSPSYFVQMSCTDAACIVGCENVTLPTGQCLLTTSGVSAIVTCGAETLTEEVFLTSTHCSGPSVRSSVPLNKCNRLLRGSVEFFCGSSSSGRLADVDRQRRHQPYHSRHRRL
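Purified cruzain at 1.5 nM, pre-incubated 15 min with compound at room temperature in 100 mM sodium acetate pH 5.5, 5 mM DTT, 0.00005% Triton X-100. Reaction started with 2 uM Z-FR-AMC; AMC fluorescence increase over 60 s gives rate.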
Cruzain inh Det: qHTS Assay for Promiscuous and Specific Inhibitors of Cruzain (with detergent); 200,000 tested, 0.43% active; purified cruzain, Z-FR-AMC fluorescence, 0.01% Triton; Potency, µM, for inactives: max response, negative = inhibition, usual class: inhibitors; Cruzipain (Trypanosoma cruzi), P25779;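 note: plate controls were neutral wells for no effect and buffer without enzyme for full effect; nearly all actives have a fitted effect of over 40% in size; top concentration of the series not given in the record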
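Z-FR-AMC hydrolysis (2 uM substrate) by cruzain (1.5 nM) monitored kinetically at ex 360/em 450 nm after 15 min room-temperature compound exposure; 0.01% Triton X-100, pH 5.5, 5 mM DTT.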
LASV entry inh: qHTS for Inhibitors of binding or entry into cells for Lassa Virus | Lassa virus pseudotype entry inhibition, cell reporter; control for the full effect not named in the record | AID 540256, 2011 | Potency, µM (doses to about 37.9 µM), for inactives: at the top dose activity change, negative = inhibition, usual class: inhibitors | 300,000 tested, 1.2% active; active means well fitted inhibition curve with a large enough effect; inconclusive means small, poorly fitted or top-dose-only effect, or effect the other way; inactive means flat fitted curve, though single readings scatter; tested in HEK293 cells; note: % is set by controls: 0 for no effect and ±100 for the full control effect; nearly all actives have a fitted effect of over 50% in size; luciferase read-out
Marburg entry inh: qHTS for inhibitors of binding or entry into cells for Marburg Virus; Marburg virus pseudotyped entry inhibition, cell reporter; control for the full effect not named in the record; about a third of the inactives were read at about 46 µM; Potency, µM (doses to about 37.8 µM), without a hit: top-dose activity change, negative = inhibition, actives largely listed as inhibitors; 300,000 tested, 1.8% active; AID 540276, 2011; active = well fitted inhibition curve with a large enough effect; inconclusive = small, poorly fitted or top-dose-only effect, or effect the other way; inactive = flat fitted curve, though single readings scatter; tested in HEK293 cells; about a fifth of its hits are not listed in these tables; note: % is set by controls: 0 for no effect and ±100 for the full control effect; luciferase read-out
NS1 inh: qHTS Assay for Inhibitors of Influenza NS1 Protein Function; Potency, µM (highest dose often 46.1 µM), for the others: at the highest dose activity, positive = more growth; AID 2326, 2010; S. cerevisiae slowed by influenza A NS1, growth recovery by OD600; 270,000 tested, 0.4% active; active means well fitted rising curve with a large enough effect; inconclusive means small, poorly fitted or top-dose-only effect; inactive means no such curve, though single readings can be large or run the other way; note: nearly all actives have a fitted effect of over 50% in size
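A cell-based growth assay was used: compounds that relieve NS1-induced slow growth of budding yeast raise OD600. Assay medium was yeast nitrogen base with ammonium sulphate and -URA supplement, pH 6.0, with 2% galactose.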
An asterisk follows results filed as active; ? = inconclusive; · = no result given; & = joins results of further samples; [ ] = another dose, or the depositor's remark. Unless noted, calls come from the whole dose curve; as a rule, active = well fitted curve in the direction sought with a large enough effect; inconclusive = small, poorly fitted or top-dose-only effect, or another doubt; inactive = no such curve, though single readings can be large; an effect the other way counts as inactive or inconclusive. Potency is the fitted concentration of half-maximal effect.

Second line of a record – Cruzain noTriton, SARS PLpro yeast, Marburg entry inh, 2A StopGo, RE007 growth inh, LASV entry inh, Cruzain inh Det, NS1 inh
[1] CO/N=C/NC(=O)N1OC[C@@H]2COc3ccc4ccccc4c3[C@@H]21
    22%, 12%, -10%, -10%, -2%, 9%, -4.6%, -6%
[2] CCC(=O)Nc1ccccc1-c1nc2ccccc2n(CC(=O)Nc2ccccc2OC)c1=O
    -9%, ·, 3%[46.1 µM], -26%, ·, -5%[46.1 µM], -2.8%, ·
[3] Cc1ccc2c(C(=O)CN3CCCCC3CCO)c(C)[nH]c2c1 (stereo unspecified)
    8%, -3%, 18%, -19%, -2%, 5%, -3.0%, -10%
[4] CN1Cc2c(N3CCOCC3)nc(SCc3ccccc3)c(C#N)c2CC1(C)C
    -6%, 18%, ?, -11%, -3%, -2%, -5.1%, 3%
[5] CC(C)(C)[C@H]1C=C(C(=O)Nc2ccccc2)O[C@@H](OCc2ccc(CO)cc2)C1
    ·, -3%, ·, 1%, 9%, ·, ·, -6%
[6] COc1ccc(C(=O)C2CCCN(Cc3c(O)cccc3OC)C2)cc1OC (stereo unspecified)
    ·, -14%, ?, 8%, -25%, -10%[46.1 µM], ·, 14%
[7] COC(=O)c1cccc(NC(=O)c2cccs2)c1C
    5%, 4%, -3%, 12%, -7%, 15%, 0.8%, -52%
[8] COc1cc(NS(=O)(=O)c2ccc3c(c2)OCC(C(=O)N2CCCC2)O3)cc(OC)c1 (stereo unspecified)
    2%, ·, ·, -1%, ·, ?, -3.8%, ·
[9] CCCCN(C)C(=O)c1nc2ccccn2c1CN1CCC[C@H]1CO
    ·, 1%, 13%[46.1 µM], 5%, -18%, -1%[46.1 µM], ·, -10%
[10] Cc1ccc(NC(=O)CNCc2ccccn2)cc1S(=O)(=O)N(C)C
    ·, -4%, ?, 19%, -3%, 8%[46.1 µM], ·, -3%
[11] O=C(N/N=C/c1ccncc1)c1cc(Br)ccc1OCc1ccccc1
    11%, 0%, ?, -16%, 2%, 0%, 1.5%, 5%
[12] O=C(NCCc1ccc2c(c1)OCCO2)c1cc(F)cc(F)c1
    11%, -25%, 0%, -7%, 39%, ?, -4.4%, 3%
[13] COc1cccc(C2c3c(-c4ccccc4O)n[nH]c3C(=O)N2Cc2cccnc2)c1 (stereo unspecified)
    3%, ·, -8%[46.1 µM], -19%, ·, ?, -5.6%, ·
[14] CC(C)c1ccc(NC2CCCN(C(=O)c3cscn3)C2)cc1 (stereo unspecified)
    ·, -3%, 16%[46.1 µM], 9%, 7%, ?, ·, -7%
[15] O=C1CN(C(=O)COc2ccc(Cl)c(Cl)c2)c2ccccc2N1
    ·, -4%, -2%, -12%, -7%, -20%, ·, ·
[16] CC(NCc1cccn1C)c1ccccc1 (stereo unspecified)
    3%, 9%, 16%, -8%, 0%, 21%, 2.8%, 3%
[17] COc1ccc2cc(CCNC(=O)c3c(-c4ccccc4Cl)noc3C)c(=O)[nH]c2c1
    -2%, 3%, ·, -14%, 2%, ·, -4.9%, -11%
[18] CCOc1cccc(OCCOCCN(C)Cc2ccccc2)c1
    -4%, -1%, ?, -20%, -13%, -21%, 1.0%, -3%
[19] Cc1ccc(NS(=O)(=O)c2ccc3c(c2)C(C(C)C)C(=O)N3)cc1C (stereo unspecified)
    -12%, ·, ·, 17%, ·, 12%[46.1 µM], -5.4%, ·
[20] O=C(CN1C(=O)c2cccc3cccc(c23)C1=O)N1CCN(c2ccccn2)CC1
    -5%, -29%, ?, -2%, 8%, -11%, -1.1%, -3%
[21] Cc1ccc(S(=O)(=O)N2CCOCC2)cc1C(=O)Nc1cc(Cl)ccc1N1CCOCC1
    ·, 0%, -25%, -2%, 6%, 3%, ·, ·
[22] CCOC(=O)CN1CC23C=CC(O2)C(C(=O)Nc2ccc(OC)cc2OC)C3C1=O (stereo unspecified)
    -8%, 7%, 6%&6%, 10%, 7%, 3%, -2.5%, 3.2µM*
[23] CCN1C(=O)c2cccc3c(Cl)ccc1c23
    ·, 0%, ·, 3%, -15%, ·, ·, -16%
[24] Cc1cc(=O)[nH]c(SCC(=O)Nc2ccccc2C)n1
    ·, -2%, 7%[46.1 µM], 23%, 29%, -11%[46.1 µM], ·, -1%
[25] CC(=O)Nc1nnc(/C=C/c2cccc([N+](=O)[O-])c2)s1
    ·, 2%, -3%, 20%, 12%, ?, ·, 3%
[26] Cc1cc(C)cc(NC(=O)CCN2CC(C)OC(C)C2)c1 (stereo unspecified)
    21%, -1%, 15%, -18%, 2%, 4%, 11%, ?
[27] CCn1c(/C=C/c2cc(Br)ccc2O)nc2ccccc2c1=O
    ·, 3%, ·, ?, 1%, ·, ·, 9%
[28] COc1ccc(N2CCN(C3CC(=O)N(C)C3=O)CC2)cc1 (stereo unspecified)
    -3%, 7%, 4%, -23%, ?, 20%, -0.1%, 0%
[29] CCn1ncc(Br)c1C(=O)Nc1ccc(C(=O)OC(C)C)cc1
    5%, -31%, ?, ?, -17%, ?, -3.4%, -24%
[30] Cc1ccc(CNc2ccc(N3CCOCC3)c(Cl)c2)cc1
    ·, -3%, 11%, 11%, -4%, -24%, ·, -7%

(list continues)
Second line of a record – Cruzain noTriton, SARS PLpro yeast, Marburg entry inh, 2A StopGo, RE007 growth inh, LASV entry inh, Cruzain inh Det, NS1 inh
[31] CC(NC(=O)Nc1ccc([N+](=O)[O-])cc1)C(c1ccccc1)N1CCOCC1 (stereo unspecified)
    ·, 0%, ?, -10%, 5%, 6%, ·, ·
[32] CC(C)c1ccc(Cc2cnc(NC(=O)c3ccc4c(c3)CC(c3ccccc3)OC4=O)s2)cc1 (stereo unspecified)
    ?, ·, 0%[46.1 µM], ?, ·, -2%[46.1 µM], 0.2%, ·
[33] O=C(COc1ccc(F)cc1)Nc1nnc(-c2ccncc2)s1
    7%, 8%, 0%, 16%, -4%, 7%, -0.3%, -81%
[34] Cc1ccc(SCC(=O)Nc2ccc3oc(-c4ccccc4F)nc3c2)cc1
    -5%, ·, ?, -1%, ·, ?, -9.2%, ·
[35] CCN(CC)CCCNC(=O)c1cc2nc(-c3ccccc3)cc(C(F)(F)F)n2n1
    ·, 2%, ·, -20%, -1%, ·, ·, 8%
[36] CC(=O)NCCC(=O)Nc1cc(S(=O)(=O)N2CCOCC2)ccc1N1CCOCC1
    ·, 0%, -3%[46.1 µM], -3%, -6%, -2%, ·, ·
[37] NC(=O)[C@H]1CC2(CC(c3cccc(NC(=O)[C@H]4CCC(=O)N4)c3)=NO2)CN1C(=O)c1ccccc1C(=O)c1ccccc1 (stereo partly specified)
    ·, -3%, ·, -13%, -14%, ·, ·, -3%
[38] CCOc1ccc(NC(=O)CN2C(=O)/C(=C3\SC(=S)N(C4CCS(=O)(=O)C4)C3=O)c3ccccc32)cc1 (stereo unspecified)
    ·, 7%, -2%, -8%, 7%, 10%, ·, 8%
[39] CCCCCC(=O)NCc1c(C(F)(F)F)nn(C)c1N1CCOCC1
    ·, -1%, -28%[46.1 µM], -10%, 7%, -14%, ·, -2%
[40] COc1cc(Br)cc(/C=C/c2ccc3cccc(O)c3n2)c1OC
    ·, -1%, ·, -19%, -15%, ·, ·, 8%
[41] CCc1nnc(NC(=O)C2CCC(CNc3c(N4CCCCC4)c(=O)c3=O)CC2)s1 (stereo unspecified)
    ·, -1%, ·, -7%, 4%, ·, ·, 1%
[42] Cc1cccc(OC(=O)CSc2nnc(-c3cccs3)o2)c1C
    -6%, ·, 4%[46.1 µM], -21%, ·, 3%[46.1 µM], -3.1%, ·
[43] O=c1[nH]c(O)c(N=Nc2ccc([N+](=O)[O-])cc2)c(=O)[nH]1
    ·, 2%, -2%, -12%, -1%, 14%, ·, ·
[44] Cc1cccc(N2CC(O)(c3cccs3)[N+]3=C2CCCCC3)c1 (stereo unspecified)
    ·, -1%, ?, 0%, -22%, ?, ·, ·
[45] CCc1nn(CC(=O)Nc2c(C)cc(C)cc2C)c(=O)c2cc3sccc3n12
    -6%, ·, ?, -2%, ·, ·, -3.1%, ·
[46] O=C(COC(=O)Cn1cc(C(F)(F)F)ccc1=O)Nc1ccc(Br)cc1F
    ·, -1%, 7%, -6%, 19%, ?, ·, ·
[47] CC(=O)C1=C(C)NC(=O)NC1c1cc(Br)ccc1OCC(N)=O (stereo unspecified)
    -6%, 2%, -5%[46.1 µM], -13%, 7%, -2%, -2.7%, 8%
[48] O=C(NCc1cccc(Cl)c1)c1cc2c(s1)-c1ccccc1SC2
    25µM*, ·, 17%[46.1 µM], 24%, ·, -11%[46.1 µM], -6.4%, ·
[49] Cc1cccc(NC(=S)NC2CCN(Cc3ccccc3)CC2)c1C
    6%, -7%, -17%, ?, 7%, -23%, -2.6%, -1%
[50] COc1ccc2nc(N3CCCC(O)C3)c(C#N)cc2c1 (stereo unspecified)
    7%, 9%, 1%, 50%[activator], 3%, 3%, -1.8%, -3%
[51] Cn1c(CNC(=O)c2ccco2)nnc1SCC(=O)N1CCN(c2ccccc2)CC1
    ·, 0%, -2%[46.1 µM], -12%, 4%, ·, ·, 2%
[52] O=S(=O)(NCc1ccccn1)c1ccccc1
    8%, 8%, 17%, -1%, -19%, -2%, 1.7%, -2%
[53] Cc1cccc(-c2n[nH]c(=S)n2/N=C/c2ccc(C)s2)c1
    -3%, -6%, 4%, -13%, 1%, ?, -3.1%, 24%
[54] CC(=NCCN1CCCCC1)c1c(O)n(Cc2ccccc2)c(=O)[nH]c1=O
    -5%, 6%, -3%, -10%, -6%, 1%, 1.5%, 11%
[55] CCOc1ccccc1N1CCN(CC(O)COC2CCCc3ccccc32)CC1 (stereo unspecified)
    ·, 2%, ?, 25%, 0%, -3%, ·, -7%
[56] CCNc1cc2n(c(=O)n1)CCc1cc(OC)c(OC)cc1-2
    -4%, -1%, 1%, ·, 3%, 3%, -18%, 4%

Compounds were not picked by outcome; any-hit rate near 4.7%.
